# Assay outcomes (PubChem)
# V. cholerae QS: Vibrio cholerae quorum sensing activators, luminescence (AID 686977) | V. cholerae quorum sensing reporter, luminescence, 6 h; higher luminescence means a stronger effect; most inactives read 0 | luminescence at 50 µM unless noted, or EC50 in µM where a hit was titrated | 9,400 tested, under 10 active;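 active = light above mean plus 3 SD and confirmed in a dose series; inconclusive = above that limit without a clear retest; inactive = below it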;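 also: raw light counts without normalisation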
# * hit, by the source's call; u = inconclusive; [ ] = remark or other dose.
SMILES,V. cholerae QS
O=C(CN1C(=O)c2cccc3cccc1c23)NCc1ccccn1,40
COc1cc(OC)c(C2CC(=O)N3CN(c4ccc(C)cc4)CSC3=C2C#N)cc1OC (stereo unspecified),0
CC/C(=C(/CC)c1ccc(O)cc1)c1ccc(O)cc1,0[10 µg/mL]
CCOC(=O)CSc1nc(NCc2ccco2)c2ccccc2n1,0
CCCCc1nnc(NC(=O)CS(=O)(=O)Cc2ccccc2)s1,40
COc1ccc(NC(=O)c2nnn(Cc3ccc(SC)cc3)c2N)c(OC)c1,0
O=C(O)CCc1nc(-c2ccccc2)no1,0
Cc1cc(C)n2nc(S(=O)(=O)NC3CCCCC3)nc2n1,40
COc1ccccc1NC(=O)Nc1c(C)n(C)n(-c2ccccc2)c1=O,40
CCOC(=O)c1c(-c2ccccc2)csc1NC(=O)c1cccc(N2C(=O)CCC2=O)c1,0
CCC(C)NS(=O)(=O)c1ccc(S(=O)(=O)N(CC(=O)Nc2ccccc2)CC2CCCO2)cc1 (stereo unspecified),u
C1=CCC(/C=N/n2cnnc2)CC1 (stereo unspecified),40
c1ccc(Oc2cccc(OCCCCSc3ncccn3)c2)cc1,0
O=C1N=C(O)CN1/N=C/c1ccc(-c2ccc([N+](=O)[O-])cc2)o1,0[10 µg/mL]
Cc1ccc(SCCC(=O)N(C)C)cc1,0
N#Cc1c(SCc2ccccc2)sc(C(=O)c2ccccc2)c1N,40
COC(=O)C1=C(C)N(C)C(C)=C(C(=O)OC)C1c1ccc(C(=O)OC)cc1,0
CCOC(=O)c1ccc(NC(=O)CS(=O)(=O)c2cn(CC)c3ccccc23)cc1,40
CCOC(=O)C1=C(C)NC(C)=C(C(=O)OC)C1c1cccc(Cl)c1Cl (stereo unspecified),0[10 µg/mL]
Cc1cc2n(n1)C(c1ccc(N(C)C)cc1)Nc1ccccc1-2 (stereo unspecified),0
c1ccc(C2CN3CCSC3=N2)cc1 (stereo unspecified),0[10 µg/mL]
O=C(CCc1ccccc1)NCCCN1CCOCC1,40
c1ccc(CN2CCN(c3nc(-c4ccccc4)nc(-n4ccnc4)n3)CC2)cc1,u
O=C(O)c1ccccc1C(=O)NCc1cccnc1,40
CC1(C)Cc2ccccc2C2CC(O)C(=O)N21 (stereo unspecified),40
O=C(CSc1nncs1)NC(=O)NCc1ccccc1,0
COc1ccc2c3c([nH]c2c1)[C@H]1C[C@H]2[C@H](C[C@@H](O)[C@H](OC)[C@H]2C(=O)O)CN1CC3,0[10 µg/mL]
CCOC(=O)c1c(C)n(C)c2ccc(O)c(CN(CC)CC)c12,0
Cc1ccccc1NC(=O)C(C)c1ccc(-c2ccccc2)c(F)c1 (stereo unspecified),0
O=C1[C@@H]2[C@H](C(=O)N1Cc1cccnc1)[C@H]1C=C[C@@H]2C1,0
CC1=C/C(=N\OC(=O)/C=C/c2ccccc2)C(C)=CC1=O,40
CCOC(=O)N1CCC(NC(=O)C2CCCN(S(=O)(=O)c3ccc4c(c3)oc(=O)n4C)C2)CC1 (stereo unspecified),0
Cc1ccccc1N(CC(=O)NCc1ccncc1)S(C)(=O)=O,0
O=C(c1ccc(Cl)s1)N1CCN(c2nc3ccccc3s2)CC1,0
Cc1cc(NC(=O)CN2CCN(c3ncccn3)CC2)no1,0
C/C(=N/N1CCN(c2ccccn2)CC1)c1ccc([N+](=O)[O-])cc1,0
COCCNS(=O)(=O)c1ccc(-c2ccc(C)cc2)cc1,40
Cc1cc(NC(=O)CSc2nnc(-c3ccc(Br)o3)n2Cc2ccccc2)no1,0
Cc1ncc(S(=O)(=O)c2ccccc2)c(-c2ccccc2)n1,0
CCN1C(=O)c2cccc3c(NC(=O)c4ccc(S(=O)(=O)N(C)C)cc4)ccc1c23,40
COc1ccc(S(=O)(=O)N2CCN(C)CC2)cc1C,40
COC(=O)c1cc(=O)n(CCc2ccccc2F)c(=Nc2ccc(F)c(Cl)c2)s1,40
COc1ccc(N2CCN(CCCNS(=O)(=O)c3c(C)noc3/C=C/N(C)C)CC2)cc1,280
CCCCc1ccc(C(=O)O)nc1,0[10 µg/mL]
CNC(=O)Oc1ccc2c(c1)[C@]1(C)CCN(C)[C@@H]1N2C,0[10 µg/mL]
O=C(O)C1C2C=CC(C2)C1C(=O)NC(c1ccccc1)c1ccccc1 (stereo unspecified),0
Cc1ccc(NC(=O)Nc2ccc3c(c2)N(C)C(=O)CS3)cc1C,0
COc1nc(Oc2ccc(C(=O)O)cc2)nc(Oc2ccc(C(=O)O)cc2)n1,0
COc1ccc(-n2c(Cc3cccn3C)nnc2SCC(=O)Nc2ccc(Cl)cc2)cc1,0
CCC(=O)N1CCN(c2nc3ccccc3s2)CC1,0
COc1cccc(Oc2ccc(N)cc2)c1,40
O=C(O)C1(O)C[C@H](O)C(O)[C@@H](O)C1 (stereo partly specified),0[10 µg/mL]
COC(=O)C1CCCN1C(=O)C1CCCN1C(=O)CNC(=O)OCc1ccccc1 (stereo unspecified),0
O=C(NNC(=O)c1ccccc1Cl)c1cccs1,0
CN1CCCc2cc3c(C(F)(F)F)cc(=O)oc3nc21,0
Cc1cc2ccccc2n1CCNC(=O)C(C)C,80
COc1ccccc1N(C)S(=O)(=O)c1ccc(C(=O)N2CCC(C(N)=O)CC2)cc1,0
O=C(O)Cn1cc(C(=O)C2CC2)c2ccccc21,0
COC(=O)c1ccc(NC(=O)Nc2ccc(F)c(Cl)c2)cc1,0
CCC(=O)C1=C(N2CCCC2)CC(C)(C)CC1=O,0

# The results go on:
SMILES,V. cholerae QS
Cc1ccc(-n2ncc3c(=O)[nH]cnc32)c(C)c1,0
CCC(Sc1nccn1C)C(=O)Nc1nnc(C)s1 (stereo unspecified),0
Cn1c(=O)[nH]c(=O)c2c1nc(NCc1ccco1)n2CCCc1ccccc1,40
O=C(c1ccco1)N1CCN(c2nc3ccsc3c(=O)s2)CC1,40
Cc1c(N(C)CS(=O)(=O)O)c(=O)n(-c2ccccc2)n1C,0[10 µg/mL]
Cc1cc(C)nc(NS(=O)(=O)c2ccc(NC(=S)NC(=O)C(C)(C)C)cc2)n1,0
CCc1ccc(NC(=O)c2onc(C)c2Cl)cc1,0
Cc1ccc(CCNC(=O)C2CCN(S(=O)(=O)c3c(C)nn(C)c3C)CC2)cc1,0
CCOC(=O)CC(N)c1ccc2c(c1)OCO2 (stereo unspecified),0
COc1ccc(Sc2nnc(-c3ccccc3)cc2C#N)cc1,0
CCOC(=O)N1CCC(N2C(=O)c3ccccc3C2Nc2ccc(Cl)cn2)CC1 (stereo unspecified),0
CO/N=C/C(C#N)c1ncc(C(F)(F)F)cc1Cl (stereo unspecified),40
CC1CN(c2ncnc3c2cnn3-c2ccc(Cl)cc2)CC(C)O1 (stereo unspecified),80
Cc1csc2ncc(C(=O)Nc3ccc(C(F)(F)F)cc3)c(=O)n12,0
O=C(Oc1cc2oc(=O)c3c(c2cc1Cl)CCCC3)c1ccco1,0
Nc1ncnc2c1ncn2[C@H]1O[C@H](CO)[C@@H](O)[C@@H]1O,0[10 µg/mL]
CCOC(=O)CSc1ccc(-c2nc3ccccc3[nH]2)cn1,0
Cc1cc(=O)oc2cc(NC(=O)C3COc4ccccc4O3)ccc12 (stereo unspecified),40
COc1ccc(-c2nnc(NC(=O)C(C)C)o2)cc1,0
CCN(CC)CCN1C(=O)C(=O)/C(=C(/O)c2c(C)[nH]c(C(=O)OC)c2C)C1c1ccco1 (stereo unspecified),0
O=C(CCCn1c(=O)oc2ccccc21)N1CCc2ccccc2C1,0
Cc1cc(C)nc(/N=C2\NC(=O)CC(C(=O)O)N2CCc2c[nH]c3ccccc23)n1 (stereo unspecified),0
Cc1ncc(C[n+]2csc(CCO)c2C)c(N)n1,0[10 µg/mL]
O=C(CCn1c(=O)oc2ccccc21)Nc1cccc(Cl)c1,0
CCC(CC)C(=O)N1CC(=O)Nc2ccc(Br)cc2C1c1ccccc1 (stereo unspecified),0
COC(=O)[C@H](Cc1ccccc1)NC(=O)NCc1cccs1,0
COc1ccc(C(C(=O)NC2CCCC2)N2CCc3ccccc32)cc1 (stereo unspecified),0
CO[C@@]1(NC(=O)[C@H](C(=O)O)c2ccc(O)cc2)C(=O)N2C(C(=O)O)=C(CSc3nnnn3C)CO[C@@H]21,40[10 µg/mL]
CN(C)CCC(c1ccccc1)c1ccccn1 (stereo unspecified),40[10 µg/mL]
CCOC(=O)c1sc(NS(=O)(=O)c2ccc(C)cc2)nc1C,0
COc1ccc(C2CC(c3cccs3)=NN2C(=O)CSC2=NN3CCCC(=O)N=C3S2)cc1 (stereo unspecified),0
Cc1cc(S(=O)(=O)N(Cc2ccc3c(c2)OCO3)CC2CCCO2)ccc1-n1cnnn1 (stereo unspecified),0
Nc1ccc(S(=O)(=O)Nc2ncccn2)cc1,40[10 µg/mL]
C=CCn1c(CCNC(=O)c2ccccc2F)nnc1SCC(=O)Nc1nc(C)cs1,0
N#CC(c1cccc(C(F)(F)F)c1)(c1ncc(C(F)(F)F)cc1Cl)N1CCOCC1 (stereo unspecified),0
CC(C)NC(=O)Cn1cc(C#N)c2cc(Br)ccc21,0
O=C(CF)NC(Nc1cccc2cccnc12)C(Cl)(Cl)Cl (stereo unspecified),40
CCn1c(CNC(=O)COc2ccc(C(C)C)cc2)nnc1SCC(=O)Nc1ccccc1F,0
Cc1cc(C)c(C)c(S(=O)(=O)Nc2ccc(O)cc2)c1C,0
COC(=O)c1cc(OC)c(OC)cc1NC(=O)c1ccccc1,40
O=C1CN(C(=O)c2ccc(Br)o2)C(c2ccccc2)c2cc(Cl)ccc2N1 (stereo unspecified),40
CC1CCCCN1C(=O)CSc1nc(N)cc(=O)[nH]1 (stereo unspecified),40
Brc1ccc(-c2nn3c(-c4ccccn4)nnc3s2)o1,40
CNC(=O)CN(c1ccc2c(c1)OCCO2)S(C)(=O)=O,0
Oc1cc(O)c2c(c1)O[C@H](c1ccc(O)c(O)c1)[C@@H](O)C2,40[10 µg/mL]
Cc1cccc(C)c1-n1c(C)cc(/C=N\Nc2ccc([N+](=O)[O-])cn2)c1C,u
O=C(Nc1ccc(Cc2ccc(NC(=O)N3CCOCC3)cc2)cc1)N1CCOCC1,40
CCn1cc(C(=O)N2CCOCC2)c(=O)c2cc(S(=O)(=O)N(C)C)ccc21,0
COc1cccc(-n2nc(-c3ccnn3-c3ccccc3)c(=O)n(C)c2=O)c1,0
CC1CCN(CC(O)COc2ccc(F)cc2)CC1 (stereo unspecified),40
CCc1ccccc1NC(=O)c1cnc2scc(C)n2c1=O,0
O=C1CCc2cc(S(=O)(=O)N3CCC(C(=O)NCCC4=CCCCC4)CC3)ccc2N1,200
COCCOC(=O)C1=C(C)OC(N)=C(C(=O)OC)C12C(=O)Nc1ccccc12 (stereo unspecified),0
O=C(c1ccc(F)cc1)n1ccc(-c2cnc(-c3ccccc3)s2)n1,0
CC(C)(C)CNc1cc(N2CCCC2)ccc1[N+](=O)[O-],40
COc1ccc(CC2c3cc(OC)c(OC)cc3CCN2C)cc1OC (stereo unspecified),40[10 µg/mL]
Cc1cccc(C)c1NC1=NCCCCS1,0
CCOC(=O)/C(N=Nc1ccc(Cl)cc1)=C(/O)c1ccc([N+](=O)[O-])cc1,40
N/C(=N\OS(=O)(=O)c1ccc(Cl)cc1)c1ccncc1,0
CCn1ccnc1C(O)c1cccc(OC)c1OC (stereo unspecified),u

# Going on with the list:
SMILES,V. cholerae QS
Cc1noc(C)c1C(=O)N1CCOCC1,0
O=C(O)CCn1c(=O)[nH]c2ccccc2c1=O,0
CN(C)CCOC(c1ccc(Cl)cc1)c1ccccn1 (stereo unspecified),0[10 µg/mL]
CS(=O)(=O)N(CC(=O)NCC1CCCO1)Cc1ccc(Cl)cc1 (stereo unspecified),0
Cc1c(N(C)C(=O)c2ccccc2F)c(=O)n(-c2ccccc2)n1C,40
O=C1O[C@H]([C@@H](O)CO)C(O)=C1O,40[10 µg/mL]
O=C(N/N=C/c1cccs1)c1cccc2cc[nH]c12,0
CCn1cc(C(=O)NCC2CCCO2)c(=O)c2cc(S(=O)(=O)N(C)C3CCCCC3)ccc21 (stereo unspecified),u
COc1ccccc1N1CCN(Cc2cc(Br)c(O)c3ncccc23)CC1,240
O=C(Nc1nc(-c2ccccc2)cs1)C1CCCCN1S(=O)(=O)c1ccc(Cl)cc1 (stereo unspecified),40
COc1ccc(-n2c(Cc3cccn3C)nnc2SCC(=O)Nc2nc(C)cs2)cc1,0
Cn1cnc([N+](=O)[O-])c1Sc1ncnc2nc[nH]c12,0[10 µg/mL]
CCCc1ccc(Oc2c(-c3ccc(O)c(C)c3O)n[nH]c2C)cc1,0
CC1=C(C(=O)OCC2CCCO2)C(c2ccncc2)C2=C(CCCC2=O)N1 (stereo unspecified),0

# Taken from above:
# `Cc1csc2ncc(C(=O)Nc3ccc(C(F)(F)F)cc3)c(=O)n12` in V. cholerae QS = 0
# `O=C(CN1C(=O)c2cccc3cccc1c23)NCc1ccccn1` in V. cholerae QS = 40

# Some of the entries so far, as tab-separated lines:
canonical_smiles	V. cholerae QS
CCOC(=O)/C(N=Nc1ccc(Cl)cc1)=C(/O)c1ccc([N+](=O)[O-])cc1	40
N/C(=N\OS(=O)(=O)c1ccc(Cl)cc1)c1ccncc1	0
CCn1ccnc1C(O)c1cccc(OC)c1OC (stereo unspecified)	u
Cc1noc(C)c1C(=O)N1CCOCC1	0
O=C(O)CCn1c(=O)[nH]c2ccccc2c1=O	0
CN(C)CCOC(c1ccc(Cl)cc1)c1ccccn1 (stereo unspecified)	0[10 µg/mL]
CS(=O)(=O)N(CC(=O)NCC1CCCO1)Cc1ccc(Cl)cc1 (stereo unspecified)	0
Cc1c(N(C)C(=O)c2ccccc2F)c(=O)n(-c2ccccc2)n1C	40
O=C1O[C@H]([C@@H](O)CO)C(O)=C1O	40[10 µg/mL]
O=C(N/N=C/c1cccs1)c1cccc2cc[nH]c12	0
CCn1cc(C(=O)NCC2CCCO2)c(=O)c2cc(S(=O)(=O)N(C)C3CCCCC3)ccc21 (stereo unspecified)	u
COc1ccccc1N1CCN(Cc2cc(Br)c(O)c3ncccc23)CC1	240
O=C(Nc1nc(-c2ccccc2)cs1)C1CCCCN1S(=O)(=O)c1ccc(Cl)cc1 (stereo unspecified)	40
COc1ccc(-n2c(Cc3cccn3C)nnc2SCC(=O)Nc2nc(C)cs2)cc1	0
Cn1cnc([N+](=O)[O-])c1Sc1ncnc2nc[nH]c12	0[10 µg/mL]
CCCc1ccc(Oc2c(-c3ccc(O)c(C)c3O)n[nH]c2C)cc1	0
CC1=C(C(=O)OCC2CCCO2)C(c2ccncc2)C2=C(CCCC2=O)N1 (stereo unspecified)	0

# The list is partial; rates above refer to the full screens.
